D2 ag = Beta-Arrestin HTS for Positive Allosteric Modulators of the Human D2 Dopamine Receptor: Agonists. DiscoveRx PathHunter D2 beta-arrestin, luminescence, 90 min; 100% = 57 uM dopamine signal. activation, % (concentration not given with the values). 360,000 tested, 0.084% active. AID 624465, 2012; in the data active = activation above about 40%; inconclusive = about 15% to 40%; inactive = below about 15%; further: compound concentration not given in the record; the text of the record calls up to 30% inactive
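DiscoveRx PathHunter D2 beta-arrestin cells (2,100/well) attached overnight, then compound-stimulated 90 min at 37 C in HBSS/10 mM HEPES/0.1% Tween-20 buffer; beta-galactosidase complementation read by luminescence after 1 h at ambient temperature. Dopamine 57 uM final (EC100) as control.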
D2 PAM = Beta-Arrestin HTS for Positive Allosteric Modulators of the Human D2 Dopamine Receptor: Potentiators; D(2) dopamine receptor (Homo sapiens), P14416; DiscoveRx D2 beta-arrestin cells, luminescence, 90 min; 100% = 57 uM dopamine signal; potentiation, % (no concentration beside the values); 360,000 tested, 0.23% active; AID 624464, 2012; active = potentiation of 50% or more; inconclusive = 30% to 50%; inactive = 30% or less;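 further: compound concentration not given in the record; tested on top of an EC20 dose of dopamine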
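PathHunter beta-arrestin assay in DiscoveRx D2 cells. Compounds were added with an EC20 of dopamine (50 nM final) for 90 min at 37 deg C. Luminescence was read 1 h after detection reagent, with 57 uM dopamine as the EC100 control.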
PINK1 expr mod = A Quantitative High throughput Screen to Identify Chemical Modulators of PINK1 Expression. 410,000 tested, 0.2% active. PINK1 immunofluorescence, high-content cytometry, 24 h. AID 624263, 2012. Potency, µM (series often up to 76.6 µM), for inactives: top-dose activation (PINK1 increase), most hits filed as activators; active = well fitted activation curve with a large enough effect; inconclusive = small, poorly fitted or top-dose-only effect; inactive = flat fitted curve, though single readings scatter; cell line not stated here;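 further: potency means the concentration at half of the fitted maximal effect; % of control where 0% means no effect; nearly all actives have a fitted effect of over 65% in size; a mitochondrial uncoupler was the plate control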
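Fluorescence from anti-PINK1 antibody, together with nuclear and cell stains, was scanned on a laser-scanning cytometer. Before staining, stable-line cells were incubated 24 hours with compounds at 5 concentrations; primary antibody 12 h at 10 degrees C.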
CtBP-E1A blk = qHTS Assay for Inhibitors of the CtBP/E1A Interaction | CtBP / adenovirus E1A interaction (AlphaScreen) | 340,000 tested, 0.49% active | activity change, % (concentration not given with the values) | AlphaScreen GST-E1A/His-CtBP binding, 1536-well; stronger effect = lower value; control for the full effect not named in the record | AID 651724, 2012; in the data active means activity change below about -65%; inconclusive means about -30% to -65%; inactive means above about -30%; further: on the % scale 0 is the no-effect control and ±100 the full control effect
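AlphaScreen with 125 nM GST-E1A and 125 nM His-CtBP (5X stocks) in Tris pH 8.0, 300 mM NaCl, BSA, Tween 20, TCEP. Compounds preincubated 2 h at 37 deg C, then glutathione donor/nickel acceptor beads added for 1 h at 37 deg C in dark.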
Six1-Eya2 blk = qHTS Assay for Inhibitors of the Six1/Eya2 Interaction; AlphaScreen GST-Six1/His-Eya2 binding, biochemical; stronger effect = lower value; control for the full effect not named in the record; activity change, % (no concentration beside the values); 360,000 tested, 0.56% active; in the data active = activity change below about -65%; inconclusive = about -30% to -65%; inactive = above about -30%; further: on the % scale 0 is the no-effect control and ±100 the full control effect; compound concentration not given in the record
Target sequence (O00167 whole entry, looked up): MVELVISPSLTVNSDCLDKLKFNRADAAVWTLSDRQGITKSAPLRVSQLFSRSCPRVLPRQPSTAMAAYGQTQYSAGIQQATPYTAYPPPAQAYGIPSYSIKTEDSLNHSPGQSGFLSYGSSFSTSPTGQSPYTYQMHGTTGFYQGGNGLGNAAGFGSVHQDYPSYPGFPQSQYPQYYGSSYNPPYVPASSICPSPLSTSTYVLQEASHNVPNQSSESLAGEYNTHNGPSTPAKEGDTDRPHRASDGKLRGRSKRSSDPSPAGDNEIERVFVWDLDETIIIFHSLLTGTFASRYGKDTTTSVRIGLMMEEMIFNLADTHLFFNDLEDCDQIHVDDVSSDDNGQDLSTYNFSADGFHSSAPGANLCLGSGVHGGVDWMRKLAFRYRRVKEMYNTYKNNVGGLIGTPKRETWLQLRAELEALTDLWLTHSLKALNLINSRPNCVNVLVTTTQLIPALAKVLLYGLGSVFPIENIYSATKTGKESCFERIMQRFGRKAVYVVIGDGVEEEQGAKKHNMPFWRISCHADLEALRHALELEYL
Target sequence (Q15475 whole entry, looked up): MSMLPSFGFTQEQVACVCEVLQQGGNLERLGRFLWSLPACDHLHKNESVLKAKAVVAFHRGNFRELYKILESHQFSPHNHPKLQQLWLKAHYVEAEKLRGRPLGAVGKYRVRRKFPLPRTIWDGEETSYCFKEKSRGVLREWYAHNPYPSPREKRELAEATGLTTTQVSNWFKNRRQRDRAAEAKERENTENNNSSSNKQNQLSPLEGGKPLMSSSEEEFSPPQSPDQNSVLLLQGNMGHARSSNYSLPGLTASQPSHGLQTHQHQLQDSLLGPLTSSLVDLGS
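AlphaScreen luminescence read after one hour at 37 °C in darkness. Pin-transferred compounds met GST-Six1 and His-Eya2 protein (5X stock 250 nM/500 nM) plus glutathione donor and Ni-chelate acceptor beads (5X, 50 ug/mL).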
TRPML1 ag = qHTS for Agonists of the Human Mucolipin Transient Receptor Potential 1 (TRPML1). Mucolipin-1 (Homo sapiens), Q9GZU1. TRPML1-expressing cells, Ca2+ dye fluorescence, FDSS; host cell line not named in the record; reference of the full effect not given here. activation, % (concentration not given with the values). 410,000 tested, 0.12% active; in the data active = activation above about 50%; inconclusive = about 30% to 50%; inactive = below about 30%; further: 0% is about no effect; the text of the record puts the active cut at 80%
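Cells: TRPML1-DL, 1X Tet inducer, ~16 h at 37 degrees C/5% CO2. Dye: ABD Ca8 no-wash + quencher, 45-90 min RT. Read: 10 s baseline, compound add, 110 s agonist phase; 54-4 EC80 (4uM final), 110 s antagonist phase.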
Numbers without * were called inactive; ? = inconclusive; . = no result given; [ ] = remark or other dose. This is a random part of the collection. About 1.3% of those tested had a hit in this group.

SMILES	D2 ag	D2 PAM	PINK1 expr mod	CtBP-E1A blk	Six1-Eya2 blk	TRPML1 ag
O=c1[nH]c2cc3c(cc2cc1CN(CCN1CCOCC1)C(=S)NCC1CCCO1)OCO3 (stereo unspecified)	-7.4	-4	2.4%	-3	4	0.4
CC(NC(=O)COC(=O)c1ccc(CO)cc1)C1CC2CCC1C2 (stereo unspecified)	1.4	-1	0.6%	1	-3	0.6
COc1ccccc1NC(=O)c1sc2ncn(Cc3cccc4ccccc34)c(=O)c2c1C	-0.3	-7	2.3%	-5	-1	2.0
O=C(O)c1cc(NS(=O)(=O)c2cccs2)cc(NS(=O)(=O)c2cccs2)c1	1.7	-13	-0.9%	1	-1	-0.2
C=CCNc1ncnc2c1ncn2[C@H]1CN(CCOC)C[C@@H](CO)O1	5.8	0	1.1%	1	0	-0.5
Cc1cc2c(c(Sc3ccccc3)n1)C(=O)OC2	-1.8	-8	.	-3	6	-0.1
CC(C)(C)C1CCC(=NOC(=O)c2ccc(F)cc2)CC1 (stereo unspecified)	-1.2	5	1.4%	2	8	1.8
COc1ccc(CCNC(=O)C2CC3Cn4c(nc5ccccc54)C3N2Cc2ccccc2)cc1 (stereo unspecified)	0.6	-10	1.7%	5	0	1.0
Nc1nnc(/C=C/c2cccc([N+](=O)[O-])c2)s1	2.8	-5	-0.1%	.	3	.
CCc1ccc(/C(C)=N/NC(=O)CNC(=O)/C=C/c2ccco2)cc1	1.4	2	13%	-2	?	1.1
CCOC(=O)c1c(C)nn(-c2ccc(NC(=O)/C=C/C(=O)O)cc2)c1C	0.5	4	-1.1%	-1	1	-0.4
O=C(CSc1n[nH]c(=O)[nH]c1=O)Nc1cccc(S(=O)(=O)N2CCOCC2)c1	-2.7	-8	0.8%	-3	3	1.0
Cc1ccc(NC(=O)COc2cccc3ccccc23)c(O)c1	3.2	0	4.6%	-12	0	2.0
COc1ccccc1N(CC(=O)Nc1ccc(C(F)(F)F)cc1)S(C)(=O)=O	2.9	-4	3.5%	-2	-3	0.6
CCc1ccccc1NC(=O)N1CCC(NC(=O)C(Cc2ccccc2)NC(C)=O)CC1 (stereo unspecified)	2.4	-9	-0.5%	.	-7	0.3
O=C1/C(=C\c2ccccc2)CCc2c1[nH]c1ccccc21	-1.5	-5	6.3%	13	1	0.7
Cc1cc(OCC(=O)N(C)Cc2ccccc2)ccc1Cl	-1.4	-5	-0.6%	-14	6	1.8
CCOC(=O)c1c(-c2ccc(C)o2)csc1NC(=O)CN1CCC(C(N)=O)CC1	4.7	-2	0.0%	-4	-2	1.3
CN(C)C(=S)N=Nc1[nH]c2ccccc2c1O	-14	-28	5.5%	.	-15	0.1
O=C(O)CCNc1ccc(Cl)cc1	-2.3	-2	0.2%	3	-10	1.8
Cc1ccc(NC(=S)N2CCCC(c3nc4ccc(C)cc4[nH]3)C2)c(C)c1 (stereo unspecified)	-0.2	-21	.	4	6	0.7
COc1ccc(C)cc1NC(=O)CC1COc2ccccc2O1 (stereo unspecified)	-1.1	2	0.4%	13	-1	0.5
COc1ccc(NC(=O)CN(C)C(=O)C23CC4CC(CC(C4)C2)C3)cc1	0.3	0	-1.7%	4	-1	-0.6
COCCn1c(=NC(=O)CCS(=O)(=O)c2ccccc2)sc2c(OC)ccc(OC)c21	-1.1	15	3.3%	8	-9	-0.5
Cc1cccc(NC(=O)/C=C/c2ccc3c(c2)OCO3)n1	0.3	-11	1.2%	-1	2	1.2
NC(Cc1ccc(F)cc1)c1csc(Nc2ccc(C(=O)c3ccccc3)cc2)n1 (stereo unspecified)	?	-10	-1.0%	-3	-9	1.2
CC(=O)c1cccc(NC(=S)NC(=O)c2ccc(Cl)cc2)c1	-4.3	-18	5.9%	-4	-3	0.3
Cc1ccccc1C(=O)Nc1ccccc1-n1cccc1	-1.4	-6	3.9%[38.3 µM]	-21	-9	-0.1
O=C1OC(N2CCN(Cc3ccccc3)CC2)c2ccccc21 (stereo unspecified)	-0.5	1	3.0%	0	6	0.3
COc1ccc(-c2[nH]ncc2CN2CCC(OCc3cccnc3)CC2)c(F)c1	-5.7	0	-4.0%	-4	-8	0.5
CCOC(=O)c1ccc2c(c1)C(=O)N(C1CCCCC1)C2=O	-2.9	-16	8.5%	-10	1	-0.8
O=C1NCCn2nc3ccccc3c21	-4.2	-5	-0.7%	10	7	0.2
COc1cccc(/C=C2\SC(=O)NC2=O)c1OCc1ccc(C(=O)O)cc1	-0.5	-5	-0.3%	-22	-2	0.5
Cc1oc2nc(SCC(=O)NCc3cccnc3)nc(N)c2c1C	-0.6	-16	-1.2%	-7	-12	-1.2
Cc1noc(C)c1/C=N/Nc1ccccn1	0.0	0	-0.3%	10	11	-0.3
Nc1ncc(Br)cc1S(=O)(=O)NCCC(=O)NCCc1ccccc1	1.6	-6	-0.6%	8	0	-0.8
O=C(Nc1cc2c(cc1Cl)OCCO2)c1ccco1	-1.8	-3	7.8%[38.3 µM]	3	4	-0.7
O=C(O)C(c1ccccc1)N1C(=O)c2cccc3cccc(c23)C1=O (stereo unspecified)	-0.4	28	1.1%	.	-3	.
Cc1sc2ncnc(Sc3ccccc3C(=O)Nc3ccccc3Cl)c2c1C	-8.3	-5	1.2%	.	-1	-0.3
COc1ccc(Nc2cc(C)c3cc([N+](=O)[O-])ccc3n2)cc1	-1.2	-18	9.4%	.	-19	4.3

Ordered by number of heavy atoms (smallest number first): part of the list above
SMILES	D2 ag	D2 PAM	PINK1 expr mod	CtBP-E1A blk	Six1-Eya2 blk	TRPML1 ag
O=C1NCCn2nc3ccccc3c21	-4.2	-5	-0.7%	10	7	0.2
O=C(Nc1cc2c(cc1Cl)OCCO2)c1ccco1	-1.8	-3	7.8%[38.3 µM]	3	4	-0.7
CCOC(=O)c1ccc2c(c1)C(=O)N(C1CCCCC1)C2=O	-2.9	-16	8.5%	-10	1	-0.8
Cc1oc2nc(SCC(=O)NCc3cccnc3)nc(N)c2c1C	-0.6	-16	-1.2%	-7	-12	-1.2
COc1cccc(/C=C2\SC(=O)NC2=O)c1OCc1ccc(C(=O)O)cc1	-0.5	-5	-0.3%	-22	-2	0.5
Cc1sc2ncnc(Sc3ccccc3C(=O)Nc3ccccc3Cl)c2c1C	-8.3	-5	1.2%	.	-1	-0.3

Further compounds follow.
SMILES	D2 ag	D2 PAM	PINK1 expr mod	CtBP-E1A blk	Six1-Eya2 blk	TRPML1 ag
N#C/C(=C\c1ccc(F)cc1)c1nc(-c2ccco2)cs1	-0.6	-19	?	1	-3	1.9
COc1ccc(OCc2cc(C(=O)N3CCC(OC)CC3)no2)c2ccccc12	6.5	53*	1.7%	-1	-10	0.7
CC1CN(c2oc(-c3cccs3)nc2C#N)CC(C)O1 (stereo unspecified)	-1.3	-23	-1.2%	2	-9	-0.4
COC1=CC(=O)OC(c2ccc(OC)cc2)C1 (stereo unspecified)	0.8	0	3.5%	-1	4	-0.3
O=C(CSc1nnnn1-c1ccccc1)Nc1nsc(-c2ccc(Cl)cc2)n1	-2.5	-8	-0.8%	-3	6	3.0
COc1ccc(CCNC(=O)c2cc3sccc3n2C)cc1OC	-1.5	-7	1.2%[38.3 µM]	6	-3	1.2
COc1ccc(NC(=O)c2cc(C3CCCCN3C(=O)OCC(C)C)on2)c(C)c1 (stereo unspecified)	1.8	-7	0.6%	-1	9	-0.4
CSc1cccc2sc(NC(=O)C3=COCCO3)nc12	0.0	-1	?	-2	-2	-1.1
C=CCSc1n[nH]c(-c2cccs2)n1	-1.3	-24	-1.0%	.	15	1.9
COc1ccc(-c2nc(C#N)c(NCC3CCCO3)o2)cc1 (stereo unspecified)	-1.7	-2	3.0%[38.3 µM]	0	-9	-0.7
CC1CCc2cc(F)ccc2N1C(=O)CN1C(=O)c2ccccc2C1=O (stereo unspecified)	-0.4	-10	1.4%	1	2	-0.8
CC(=O)Nc1ccc(S(=O)(=O)N[C@@H](C)C(=O)OCC(=O)Nc2ccc3c(c2)OCCO3)cc1	6.7	-1	0.7%	-3	1	1.9
O=C(/C=C/c1ccc(Br)cc1)NC1CCCCCC1	1.8	4	-0.7%	6	0	-1.7
COc1cc(S(=O)(=O)Nc2ccncc2)ccc1F	1.4	-9	-0.5%	-7	0	0.0
CC(C)C[C@@H](CN1CCC[C@H]1CN1C(=O)C(=O)NC[C@@H]1Cc1ccc(O)cc1)N1C[C@H](Cc2ccccc2)N(CC2CCCCCC2)C(=O)C1=O	.	.	-0.6%	0	-1	0.0
COc1ccc(OCc2nnc(SCC(=O)N3CCOCC3)o2)cc1	-1.5	-4	2.7%	5	6	-0.6
O=C(CC1C(=O)NCCN1C(=O)c1ccccc1)Nc1cc(Cl)ccc1Cl (stereo unspecified)	-3.6	-3	-2.3%	-1	7	0.5
O=C(CSc1nnc(-c2ccncc2)o1)Nc1ccccc1Cl	-1.6	10	1.1%	3	2	0.9
O=C(COC(=O)C1C2CC3OC(=O)C1C3C2)Nc1cccc(Cl)c1 (stereo unspecified)	-3.8	-4	2.0%	2	-3	-0.3
COC(=O)C(O)(CC(=O)c1ccc(OC)cc1)C(F)(F)F (stereo unspecified)	-2.6	2	0.8%	6	-2	-0.4
CN(C)c1ccc(-c2ccnc3c2CC(C)(C(=O)Nc2ccc(Cl)cc2)O3)cc1 (stereo unspecified)	-2.6	2	1.8%	-12	?	-1.1
COC(=O)Cn1c(CN2CCOCC2)nc2c1c(=O)n(C)c(=O)n2C	-4.1	-1	0.3%	0	2	-0.2
CC(=O)NC1C(=O)N=C(SCC(=O)Nc2ccc(C(F)(F)F)cc2Cl)NC1=O (stereo unspecified)	0.6	-15	0.0%	.	4	0.3
CC(=O)Cc1nsc(NC(=O)c2cccc(F)c2)n1	-2.8	-2	0.4%	.	6	0.6
Fc1ccc(NC(=S)N2CCc3[nH]c4ccccc4c3C2)cc1	-1.2	-23	6.6%	.	-15	-0.3
Cc1ccc(C(=O)NNC2=Nc3cc([N+](=O)[O-])ccc3OC2)cc1	-2.1	-7	13%	-4	0	1.7
CC1Cc2ccccc2N1S(=O)(=O)c1cnc(Cl)c(Br)c1 (stereo unspecified)	-0.4	-3	-0.7%	8	-1	0.6
COc1ccc(/C=C/C(=O)NC(=S)Nc2cc3oc4ccccc4c3cc2OC)cc1	5.3	-1	3.6%	2	0	-0.8
Cc1ccc(SCc2cc(=O)n(C)[nH]2)cc1	1.7	-10	-0.6%	.	6	0.8
Cc1cc(Cl)ccc1NC(=O)CCC(=O)N/N=C/c1cccnc1	-2.8	-2	4.1%	0	0	-0.5
O=C(CNC(=O)Cc1ccccc1)NCC(=O)OCc1ccccc1	-1.9	6	1.7%	-2	-11	-0.4

Screening data: PubChem BioAssay, National Center for Advancing Translational Sciences (NCATS)
